# Vaccinia Venus – inhibitors of vaccinia virus (Venus reporter); Vaccinia virus Venus reporter expression, fluorescence; Potency, µM (series often up to 36.5 µM), for inactives: at the top dose activity change, negative = inhibition, hits mostly inhibitors; actives 0.46% (n = 330,000); active means well fitted inhibition curve with a large enough effect; inconclusive means small, poorly fitted or top-dose-only effect; inactive means no such curve, though single readings can be large or run the other way; tested in A549 cells; further: nearly all actives have a fitted effect of over 30% in size; inactives centre near -10
# VACV mCherry inh – vaccinia inhibition (mCherry reporter) | actives 0.63% (n = 310,000) | Vaccinia virus mCherry reporter infection, fluorescence; about a quarter of the inactives have no number | Potency, µM (series often up to 36.5 µM), inactives show top-dose activity change, negative = inhibition, actives largely listed as inhibitors; active = well fitted inhibition curve with a large enough effect; inconclusive = small, poorly fitted or top-dose-only effect; inactive = no such curve, though single readings can be large or run the other way; tested in A549 cells; further: nearly all actives have a fitted effect of over 35% in size; inactives centre near -10
# * marks the source's active call; other numbers are inactive results; i = inactive; ? = inconclusive; . = not tested or not shown; & = joins results of further samples; [ ] = remark or other dose. On the % scale 0 is the no-effect control and ±100 the full control effect; potency means the concentration at half of the fitted maximal effect.
structure,Vaccinia Venus,VACV mCherry inh
CN(C)CCN(Cc1ccccc1)S(=O)(=O)c1ccc2[nH]c(=O)ccc2c1,2.1%,-2.6%
Cc1ccc(-c2nc(C)sc2CC(=O)Nc2nnc(C)s2)cc1,-8.0%,-12.8%
COc1ccccc1NC(=O)C1CC(C(C)C)OC1=O (configuration not stated),-4.4%[7.34 µM],i[7.34 µM]
CC1=NNC(=O)C1Br (configuration not stated),-11.2%,i
O=C1OC(N2C(=O)CC[C@H]2C(=O)Nc2ccc3c(c2)OCO3)c2ccccc21 (some centres not stated),-6.4%,0.5%
CC(=O)NC(Cc1ccccc1)C(=O)NC1CCN(c2ncccc2[N+](=O)[O-])CC1 (configuration not stated),-15.3%,-19.6%
Cc1cccc(C(=O)N/N=C/c2ccc(OC3CSC3)cc2)c1,-4.5%,-14.1%
COc1ccccc1N(CC(=O)NC1CCCC1)C(=O)CCC(=O)Nc1ccccn1,-6.4%,8.8%
CN(/N=C/c1cc(Br)cc(Br)c1O)c1cccc(C(F)(F)F)n1,?,?
O=C(NCCc1ccccc1)C(=O)Nc1cccc(Br)c1,-15.5%,-12.9%
CCCCn1c(N)c(N(CC(C)C)C(=O)C2CSC3(C)CCC(=O)N23)c(=O)[nH]c1=O (configuration not stated),0.6%,i
CCCOc1ccc(-c2cc3onc(-c4ccccc4)c3c(=O)n2C)cc1,?,i
Cc1ccc(Cc2c(C)nc3nc(SCC(=O)N4CCC5(CC4)OCCO5)nn3c2C)cc1,?,-16.1%
CCOC(=O)CCC(=O)N1CCOCCN(C(=O)CCC(=O)OCC)CCOCC1,-10.5%,i
c1ccc(Cc2ccc(OCCN3CCOCC3)cc2)cc1,-16.5%,i
Cc1ccccc1NC(=O)/C(C#N)=C/c1ccccc1C(F)(F)F,-4.4%,i
O=C(/C=C/c1ccccc1)N(c1ccccn1)C1CCCCC1,-14.1%,-3.0%
COc1cccc(-c2nnc(N)o2)c1,-14.3%,i
Cc1oc2ccc(O)c(CN3CCCC3)c2c1C(=O)Nc1ccc(C(C)C)cc1,-14.9%,-12.7%
Cc1ccc(N2CC(O)CSC2=Nc2ccccc2)cc1 (configuration not stated),?,?
COc1ccc(S(=O)(=O)N(C(=O)c2ccncc2)c2ccc3oc4c(c3c2)CCCC4)cc1,-26.7%,-12.9%
CCn1c(/C=C/Nc2ccccc2)[n+](CC)c2ccc(Cl)cc21,-4.1%,-9.5%
CCOc1ccc(C(C)=O)cc1NC(=O)/C=C\C(=O)O,-11.5%,-16.9%
N=C1C(c2ccccc2)=C(O)CN1NC(=O)c1ccc(Cl)cc1,-4.7%,i
COc1cccc(Nc2nc(C(N)CO)cs2)n1 (configuration not stated),-21.0%,-16.6%
CO[C@H]1C=CO[C@@]2(C)Oc3c(C)c(O)c4c(O)c(c(C=NN5CCN(C)CC5)c(O)c4c3C2=O)NC(=O)C(C)=CC=C[C@H](C)[C@H](O)[C@@H](C)[C@@H](O)[C@@H](C)[C@H](OC(C)=O)[C@@H]1C,-8.8%,-17.5%
Cc1cc(C)n(-c2nc3ccccc3nc2Nc2ccc(CC(=O)O)cc2)n1,-11.5%,?
CCn1c2ccccc2c2cc(NC(=O)CCCN3C(=O)CCC3=O)ccc21,-26.8%,.
Cc1nc2ccc(NC(=O)CCC3CCCC3)cc2s1,-15.8%,-3.7%
O=C(NC1CC(=O)N(c2cccc(F)c2)C1)c1ccc(S(=O)(=O)N2CCCCC2)cc1 (configuration not stated),-17.8%,-15.1%
CCOC(=O)c1[nH]c(COC(=O)C2CC(=O)N(Cc3ccccc3)C2)c(C(=O)OCC)c1C (configuration not stated),-9.6%,-9.3%
COC(=O)c1ccc(NC(=S)NCCC2=CCCCC2)cc1,-14.8%,-13.7%
Cc1c(CN2CCCC(CO)(Cc3cccc(Cl)c3)C2)cnn1C (configuration not stated),-8.7%,-25.8%
Cc1ccc(/C=C2\CC(C)CC3=C2NC(=S)NC3c2ccc(C)cc2)cc1 (configuration not stated),-24.5%,?
NC(=O)c1ccc(OCC(F)(F)C(F)(F)C(F)(F)C(F)(F)C(F)(F)C(F)F)cc1,-10.2%,-1.4%
CCN1c2ccccc2S(=O)(=O)c2ccccc21,-13.6%,i
COc1ccc(-c2coc3c(O)c(OC)ccc3c2=O)cc1,-17.1%,-15.9%
O=C(CN1CCCC1)Nc1sc2c(c1C(=O)Nc1ccc(Br)cc1)CCC2,-5.1%,i
COc1ccc(-n2nc3c(=O)[nH][nH]c3cc2=O)cc1,-3.9%,i
O=C(CNS(=O)(=O)c1ccccc1)OCC(=O)c1ccc(Br)cc1,-2.8%,-2.0%
COc1ccc(C(=O)CC(C(=O)O)c2ccc(OC)c(OC)c2)cc1OC (configuration not stated),-3.3%,-4.8%
Cc1cccc(N2CCN(S(=O)(=O)c3ccc4[nH]c(=O)ccc4c3)CC2)c1C,-28.2%,?
Clc1ccc(C2=NN(c3ccccc3)C(c3ccco3)C2)cc1 (configuration not stated),-7.3%,-6.2%
CSc1ncnc2[nH]ncc12,5.5%,-11.1%
CCS(=O)(=O)c1ccc2oc(SCC(=O)c3ccco3)nc2c1,-17.6%,.
COc1cc(-c2cnc3c(NC=O)cc(-c4cccc(NC(C)=O)c4)cn23)cc(OC)c1OC,?,?
C=CCN(CC=C)Cc1c(C)[nH]c2ccc(C(=O)OCC)cc2c1=O,-9.3%,-7.3%
CC(C)c1nc2ccccc2n1CC(O)COC1CCCCC1 (configuration not stated),-5.2%,3.3%
CCC(=O)N(CCC(c1ccc(C)cc1)c1ccco1)Cc1ccco1 (configuration not stated),-2.7%,10.6%
O=Cc1ccc(N2CCCCCC2)cc1,-2.0%,.
O=C(CC1CCCCC1)NCc1cn2ccsc2n1,-6.5%,-13.9%
Cc1ccc2cc(CN(Cc3ccco3)C(=O)c3ccccc3)c(=O)[nH]c2c1C,-26.0%,-9.1%[1.46 µM]
Cc1cc2c(cc1S(=O)(=O)N1CCN(c3ccccc3)CC1)OCCN2C,6.6%,15.2%
CCOC(=O)CNS(=O)(=O)CCN1C(=O)c2ccccc2C1=O,-0.9%,-9.5%
Cc1cc(/C=N/n2cnnc2)c(C)n1-c1ccc(OCc2ccc(Cl)cc2Cl)cc1,?,.
O=C(NNS(=O)(=O)c1ccc(Cl)cc1)c1ccc(S(=O)(=O)N2CCCCC2)cc1,-12.0%,-19.1%
O=C(COC(=O)c1ccccn1)NCc1cccs1,1.0%,i
Cc1ccc(S(=O)(=O)N(CC(=O)Nc2ccccc2C(=O)O)c2ccccc2C)cc1,-22.5%,i
Cc1ccc(NC(=O)c2ncn(CCCN3CCN(c4ncccn4)CC3)n2)cc1C,0.0%,i
CCN(CC)CCOCCOC(=O)C1(c2ccccc2)CCCC1,-25.9%&-11.1%,-11.8%&-13.0%

# The listing continues:
structure,Vaccinia Venus,VACV mCherry inh
COC(=O)c1cc(OC)c(OC)cc1NC(=O)c1ccc(OC)c(OC)c1,-12.6%,i
COc1ccc(NC(=O)N(C)C[C@H]2Oc3ccc(NC(=O)C4CCCCC4)cc3C(=O)N([C@H](C)CO)C[C@@H]2C)cc1,-7.0%,i
Cc1ccccc1NC(=O)CSc1ccsc1[N+](=O)[O-],-8.2%,-6.0%
Cc1cc(C)n(-c2ncnc3ccccc23)n1,-2.4%,i
COCCN(CCOC)S(=O)(=O)c1ccc(C(=O)Nc2ccc(S(=O)(=O)Nc3nccc(C)n3)cc2)cc1,-9.1%,-11.4%
O=C(Cc1ccccc1)NC(Nc1ccccc1)C(Cl)(Cl)Cl (configuration not stated),?,.
CC(=O)c1c(C)nn(CC(O)COc2ccc3c(c2)CCC3)c1C (configuration not stated),-13.0%,-2.9%
COc1ccc(CN2CCNC(=O)C2CC(=O)NCCc2c[nH]c3ccccc23)c(OC)c1 (configuration not stated),-3.4%,-2.5%
COc1ccc(C2CC(c3ccc4ccccc4c3)=NN2C(=O)CN2C(=O)CCC2=O)cc1 (configuration not stated),-20.6%,i
c1ccc(-c2cc3n(c2)CCc2ccccc2-3)cc1,?,.
NC(=O)C1CCN(c2oc(-c3ccccc3F)nc2S(=O)(=O)c2ccc(Cl)cc2)CC1,-13.2%,.
Cc1cc(C)n2nc(C(=O)NCC3Cc4cccc(-c5ccc(S(C)(=O)=O)cc5)c4O3)cc2n1 (configuration not stated),-1.4%,-10.5%
COCCCNc1ccn2nc(-c3cc(OC)c(OC)c(OC)c3)cc2n1,-9.2%,-8.9%
Cc1ccc(S(=O)(=O)N(CC(=O)N/N=C\c2cccs2)c2cccc3cccnc23)cc1,-9.6%,i
CCCCC1CCC(C(=O)N(C)CC(=O)Nc2cccc(F)c2)CC1 (configuration not stated),?,?
Cc1ccccc1OCCn1nc(C(=O)O)c2ccccc2c1=O,-1.6%,-17.9%
CC1=C(C(=O)Nc2ccccc2)C2(CCCCC2)C(C(N)=O)C(=S)N1 (configuration not stated),-1.8%,-11.4%
NC(=O)CCCc1nc(-c2ccccc2)no1,3.5%[7.34 µM],i[7.34 µM]
Oc1ccc(CCc2ccccn2)cc1,-4.3%,i
O=c1[nH]c2ccccc2nc1-c1nnnn1Cc1ccccc1,4.5%,27.6%
OCC1CCCN(c2nc3cc4c(cc3cc2CNCc2cccc(C(F)(F)F)c2)OCO4)C1 (configuration not stated),-11.4%,-11.6%
Cc1ccc(NC(=O)c2ccco2)c(NC(=O)c2ccccc2C)c1,-0.3%,-9.3%
c1ccc(-c2nnc(OCc3cccnc3)c3ccccc23)cc1,-1.1%,-9.6%
O=c1[nH]c(C2CCCN(S(=O)(=O)c3ccccc3)C2)nc2c1nnn2Cc1ccccc1F (configuration not stated),-25.6%,.
COc1ccc(N(S(=O)(=O)c2ccccc2)S(=O)(=O)c2ccccc2)c(N)c1,?,-15.8%
Cc1ccc(S(=O)(=O)c2c(C)cc(C)nc2Cl)cc1,-7.6%,-13.0%
COc1ccc2[nH]c(=O)c(CN(C3CCCCC3)C(c3nnnn3Cc3ccco3)C(C)C)cc2c1 (configuration not stated),8.8%,-5.1%
O=S1(=O)N=C(N/N=C/c2ccccn2)c2ccccc21,-12.3%,-19.0%
O=S(=O)(c1cccc(S(=O)(=O)N2CCN(c3ncccn3)CC2)c1)N1CCOCC1,-19.5%,-24.2%
CCOC(=O)CC1=C(C(=O)OCC)C(c2cccs2)C(C#N)=C(N)O1 (configuration not stated),-12.5%,.

# 13 entries out of the list, sorted by length of the SMILES, descending:
structure,Vaccinia Venus,VACV mCherry inh
O=c1[nH]c(C2CCCN(S(=O)(=O)c3ccccc3)C2)nc2c1nnn2Cc1ccccc1F (configuration not stated),-25.6%,.
OCC1CCCN(c2nc3cc4c(cc3cc2CNCc2cccc(C(F)(F)F)c2)OCO4)C1 (configuration not stated),-11.4%,-11.6%
Cc1cc(/C=N/n2cnnc2)c(C)n1-c1ccc(OCc2ccc(Cl)cc2Cl)cc1,?,.
O=C(CN1CCCC1)Nc1sc2c(c1C(=O)Nc1ccc(Br)cc1)CCC2,-5.1%,i
CCCOc1ccc(-c2cc3onc(-c4ccccc4)c3c(=O)n2C)cc1,?,i
CCn1c(/C=C/Nc2ccccc2)[n+](CC)c2ccc(Cl)cc21,-4.1%,-9.5%
CCCCC1CCC(C(=O)N(C)CC(=O)Nc2cccc(F)c2)CC1 (configuration not stated),?,?
Cc1c(CN2CCCC(CO)(Cc3cccc(Cl)c3)C2)cnn1C (configuration not stated),-8.7%,-25.8%
O=C(Cc1ccccc1)NC(Nc1ccccc1)C(Cl)(Cl)Cl (configuration not stated),?,.
Cc1ccc(S(=O)(=O)c2c(C)cc(C)nc2Cl)cc1,-7.6%,-13.0%
Cc1nc2ccc(NC(=O)CCC3CCCC3)cc2s1,-15.8%,-3.7%
O=C(CC1CCCCC1)NCc1cn2ccsc2n1,-6.5%,-13.9%
Oc1ccc(CCc2ccccn2)cc1,-4.3%,i

# Further records.
compound	Vaccinia Venus	VACV mCherry inh
Cc1c(C(=O)OCC(C)C)[nH]c2c1C(=O)CC(c1cccs1)C2 (configuration not stated)	?	?
O=C(C(c1ccccc1)c1ccccc1)N1CCN(Cc2ccco2)CC1	-12.0%	-12.5%
CCc1ccc2[nH]c(=O)c(C(c3nnnn3CCOC)N3CCN(c4ccccc4)CC3)cc2c1 (configuration not stated)	-22.4%	.
CCCNC(=O)c1n[nH]c2c1CC(C(C)(C)CC)CC2 (configuration not stated)	?	i
Cc1c(O)ccc2c(O)c(NC(=O)c3ccc4c(c3)CCC(C)(C)O4)c(=O)oc12	-16.8%	i
Cc1ccc(NC(=O)CN(C)C2CCCCC2)cc1Br	-11.8%	i
O=C(NC(=S)Nc1nc(-c2cccc([N+](=O)[O-])c2)cs1)c1ccccc1Cl	-0.6%	i
O=C(O)/C=C/C(=O)Nc1ccc(S(=O)(=O)N2CCCC2)cc1	-17.1%	-10.8%
CS(=O)(=O)c1ccc(NC(=O)CCN2C(=O)C3CCCCC3C2=O)cc1 (configuration not stated)	-19.4%	i
Cc1ccc(NC(=S)NC2CC3CCC(C2)N3Cc2ccco2)cc1C (configuration not stated)	-16.7%	-26.0%
CCOc1ccccc1NC(=O)C1CCCN(S(=O)(=O)c2cccc3cccnc23)C1 (configuration not stated)	-4.7%	-17.4%
COC(=O)CCc1c(C)c(C(=O)c2ccco2)c2ccccn12	2.0%	-12.0%

# Compound profiles, as listed above:
# O=C(NC(=S)Nc1nc(-c2cccc([N+](=O)[O-])c2)cs1)c1ccccc1Cl is listed with Vaccinia Venus: -0.6%; VACV mCherry inh: i
# CCOc1ccccc1NC(=O)C1CCCN(S(=O)(=O)c2cccc3cccnc23)C1 (configuration not stated) is listed with Vaccinia Venus: -4.7%; VACV mCherry inh: -17.4%
